AF4-AF9 inh = blocks AF4 peptide binding to human AF9 | P42568 | AlphaScreen, biotin-AF4 peptide binding to FLAG-AF9 | AID 651704 | 0.47% of 350,000 active | inhibition, % at 10 µM;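 active = every replicate reaching a set inhibition limit, whatever the replicate mean, cut at about 25% in these data; inconclusive = mean inhibition reaches that limit but some replicates miss it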;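 also: 0% = plate neutral control median and 100% = total signal loss; the record names both 10 and 1 µM as test concentration; the first replicate is given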
Target sequence (P42568 whole entry, looked up): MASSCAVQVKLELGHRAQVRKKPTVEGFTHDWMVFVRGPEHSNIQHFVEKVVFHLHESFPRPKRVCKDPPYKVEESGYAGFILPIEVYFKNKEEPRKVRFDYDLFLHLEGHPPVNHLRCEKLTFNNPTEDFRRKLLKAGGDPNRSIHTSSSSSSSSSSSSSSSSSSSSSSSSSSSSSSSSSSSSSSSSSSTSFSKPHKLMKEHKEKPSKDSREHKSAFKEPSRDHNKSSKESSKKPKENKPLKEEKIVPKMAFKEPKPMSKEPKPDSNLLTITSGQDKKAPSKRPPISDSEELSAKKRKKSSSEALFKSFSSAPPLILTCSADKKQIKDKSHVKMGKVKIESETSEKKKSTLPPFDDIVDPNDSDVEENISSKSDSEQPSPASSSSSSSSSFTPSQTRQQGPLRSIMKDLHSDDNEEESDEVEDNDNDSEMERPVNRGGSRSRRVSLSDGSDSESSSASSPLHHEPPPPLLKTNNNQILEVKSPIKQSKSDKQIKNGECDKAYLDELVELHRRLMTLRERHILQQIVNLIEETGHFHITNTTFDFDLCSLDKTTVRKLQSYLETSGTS
E coli growth = E. coli growth inhibition; 0.21% of 330,000 active; OD600 absorbance (no concentration beside the values); AID 1053175; Escherichia coli growth, OD600, 23 h; stronger effect = lower value;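 active = OD600 absorbance below the run mean of sample wells minus 3.6 SD, in any replicate, cut at about 0.56 in these data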;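 also: stock transfer was 300 nL into about 60 µL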
RanGTP-Imp inh = disruptors of Ran-importin-beta complex formation – biochemical, FRET, CFP-Ran, YFP-importin-beta, homogeneous, primary screen | cell-free CFP-Ran/YFP-importin-beta FRET ratio | inhibition, % (concentration not given with the values) | 1.1% of 300,000 active;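 active = most replicates above 15%; inconclusive = exactly half above 15%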;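 also: 0% = DMSO wells and 100% = Ran loaded with GDP instead of GTP; wells of about 40 µL received 100 nL stock; the first replicate is given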
HNF4A DNA FP = change in binding of human HNF4 alpha to DNA | P41235 | HNF4a-FITC DNA binding, fluorescence polarization, 1 h | activity change, % at 10 µM | 0.3% of 360,000 active; in the data active = activity change above about 30%, passing the limit was not always enough;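 also: controls were the assay level and a saturating level of protein; the project sought stronger binding though the title names inhibitors; some compounds called inactive have numbers as strong as hits; positive values seem to mean higher polarization but the record does not say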
UCH37 DUB inh = blocks the human deubiquitinase UCH37. inhibition, % (concentration not given with the values). purified proteasome/UCH37, Ub-AMC cleavage fluorescence. Q9Y5K5. 0.33% of 330,000 active. AID 588478;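 active = mean of two replicates above 20%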;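 also: 0% = compound-free wells with enzyme and 100% = wells lacking proteasome; stock transfer was 100 nL into about 20 µL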
Target sequence (Q9Y5K5 whole entry, looked up): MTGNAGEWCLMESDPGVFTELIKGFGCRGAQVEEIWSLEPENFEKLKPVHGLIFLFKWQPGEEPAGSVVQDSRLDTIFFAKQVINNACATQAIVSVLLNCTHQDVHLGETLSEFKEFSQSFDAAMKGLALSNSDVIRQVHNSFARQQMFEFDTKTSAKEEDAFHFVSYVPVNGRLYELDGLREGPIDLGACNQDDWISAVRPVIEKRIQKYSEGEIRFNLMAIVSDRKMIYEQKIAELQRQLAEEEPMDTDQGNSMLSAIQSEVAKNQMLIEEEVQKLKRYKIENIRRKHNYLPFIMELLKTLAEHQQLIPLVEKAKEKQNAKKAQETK
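assay system = human UCH37 enzyme supplied as purified proteasome complex | amount = proteasome at 0.15 nM in the dispensed enzyme solution | schedule = 30 min compound-proteasome preincubation then 25 min substrate reaction, room temperature | measured by = fluorescence, ex 355 nm, em 460 nm | benchmarks = no-proteasome wells (full inhibition) and compound-free wells (no inhibition)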
FGF22 binding = shifts melting point of recombinant human FGF22 | recombinant FGF22 thermal shift, SYPRO orange fluorescence; percent of sucrose octasulfate shift, DMSO zero | calls only at 9.99 µM | 1.5% of 340,000 active | AID 651658;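 active = melting point raised past a set limit in the mean and every replicate; inconclusive = no clear call; three in four hits are not shown here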
Target sequence (Q9HCT0 whole entry, looked up): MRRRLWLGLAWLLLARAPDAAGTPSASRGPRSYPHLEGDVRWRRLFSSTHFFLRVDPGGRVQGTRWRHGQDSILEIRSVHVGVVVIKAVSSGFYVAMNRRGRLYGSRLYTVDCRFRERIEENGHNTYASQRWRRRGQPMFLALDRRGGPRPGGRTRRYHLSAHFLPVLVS
Vif TR-FRET = inhibitors of Vif binding to APOBEC3G peptide, primary screen, biochemical, TR-FRET, GST-Vif 1-94, biotin-A3G peptide, dose response retest (AID 1117319). TR-FRET GST-Vif / biotin-A3G peptide binding; higher % means a stronger effect; test concentration not given here; strong numbers were not always called active. one-dose inhibition, %; IC50 in µM for titrated hits. 0.57% of 260,000 active;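 active = above the screen mean plus three standard deviations and confirmed in dose response; inconclusive = results disagree or hit not tested in dose response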;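 also: Vif residues 1-94 fused to GST binding biotinylated APOBEC3G peptide 110-148; 0% = full assay without inhibitor and 100% = GST in place of GST-Vif; retest series ran down from 100 µM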
An asterisk follows results filed as active; i = inactive; ? = inconclusive; . = no result given.

SMILES	AF4-AF9 inh	E coli growth	RanGTP-Imp inh	HNF4A DNA FP	UCH37 DUB inh	FGF22 binding	Vif TR-FRET
Cc1nc(NC(=O)c2cc(-n3cnnc3)ccc2Cl)ccc1Br	.	0.72	1.5	5.5	0.9	.	-2%
CCOc1ccc(C(=O)N/N=C/c2cccc3cccnc23)cc1	.	.	3.3	1.4	.	.	-1%
O=C(Oc1ccccc1C(=O)Nc1ccccc1)c1ccccc1Br	-10	0.63	-3.1	1.2	-1.2	i	4%
COC(=O)c1cc(OC)c(OC)cc1NC(=O)c1c(-c2ccccc2Cl)noc1C	.	0.73	3.4	4.3	-5.3	.	7%
CC(C=CC(O)=C1C(=O)CNC1=O)=C[C@@H](C)C1OC2(C)OC(C(=O)C3O[C@@]32C)C1C (stereo partly specified)	-11	.	.	-2.4	.	i	.
COc1ccc2[nH]c(=O)c(CNc3ccccc3C)cc2c1	6.3	0.67	-41	4.6	-29	i	?
Oc1ccc2ccccc2c1C1Nc2cccc3cccc(c23)N1	9.9	0.66	-0.4	-0.9	-26	i	?
Cc1ccc(CNCCC2=CCCCC2)cc1	.	0.66	1.8	0.9	5.2	.	8%
COC(=O)CNC(=O)CNC(=O)Nc1ccccc1	.	0.72	2.2	2.9	4.6	.	-4%
COc1cc(C(C)=O)ccc1Oc1ncnc2c1cnn2-c1ccc(F)cc1	.	0.65	-2.2	4.9	-0.6	.	-5%
COc1ccccc1C(=O)NC(=O)COC(=O)C1CC1C (stereo unspecified)	-0.8	0.65	2.4	2.7	0.3	i	3%
O=C(CCn1c(SCC(=O)c2ccccc2)nc2ccccc2c1=O)NCc1ccc(F)cc1	.	0.71	-1.5	-0.7	1.3	.	5%
O=C(O)c1cc(Cl)c2c(c1)OCO2	-2.7	0.68	-1.7	-10	4.3	i	.
CC1=C/C(=C\c2ccc3c(c2)OCO3)C(=O)S1	.	0.7	-1.9	0.6	3.4	.	16%
Cc1c2cnn(CC(=O)NCCCN3CC(C)CC(C)C3)c(=O)c2c(C)n1Cc1ccc(Cl)cc1 (stereo unspecified)	16	0.62	7.2	4.6	0.8	i	.
Cc1ccc(N(CC(=O)N2CCN(C3CCCCC3)CC2)S(=O)(=O)c2cccnc2)cc1	.	0.71	.	3.4	7.1	.	4%
CCOC(=O)C(=NC(C)C)NNc1cc(Cl)ccc1Cl	-0.6	0.72	3.1	-0.4	7.3	i	-6%
Cc1cc(C(=O)COc2ccc(F)cc2Br)c(C)n1C	-1.5	0.72	-0.3	0.0	2.8	i	0%
Cc1ccc(C(=O)NNC(=O)CCC(=O)NCc2ccccc2)cc1Br	-3.9	0.68	.	0.7	-1.1	i	.
COc1ccc2oc(=O)c(NC(=O)C3CCCCC3)cc2c1	.	0.76	-6.7	1.1	-26	.	-2%
OC(c1ccccc1)C(Nc1ccccn1)c1ccccc1 (stereo unspecified)	-1.2	.	.	2.1	.	i	-5%
CN(C)C(=O)c1ccc(NC(=O)CN2CCc3cc4c(cc3C2)OCCCO4)cc1	-0.1	0.69	-1.3	-0.1	3.7	i	.
CC1(C)CC(NC(=O)c2cc(S(=O)(=O)N3CCCCC3)ccc2Cl)CC(C)(C)N1	1.1	.	-1.8	-3.5	.	i	.
CCCCN(C)C(=O)c1c[nH]c2ccc(S(=O)(=O)N3CCOCC3)cc2c1=O	-4.3	0.76	?	0.5	-27	i	28%
CCn1c(SCC(=O)NCCOc2ccccc2)nc2ccccc2c1=O	.	0.71	2.1	1.0	28*	.	6%
CCCCN(CC)C(=O)Cc1c(C(=O)O)[nH]c2ccc(Cl)cc12	.	0.68	.	0.5	4.2	.	18%
Cc1ccc2oc(=O)c3cnn(CC(=O)N(Cc4ccco4)C4CCCCC4)c3c2c1	1.5	0.81	?	2.6	0.5	i	-2%
COc1ccc(C)cc1S(=O)(=O)NCC(c1ccc2c(c1)OCO2)N1CCN(C)CC1 (stereo unspecified)	-4.3	0.62	2.5	1.5	0.6	i	5%
Cc1ccc(C2(SCC(N)C(=O)O)c3ccccc3-c3ccccc32)cc1 (stereo unspecified)	0.4	.	.	0.1	.	i	-6%
Cc1ccc2sc(N(CCCN(C)C)C(=O)c3nc4ccccc4s3)nc2c1C	-10	0.66	7.1	217*	-92	i	7%

The closing three compounds of the part before come first, to join the parts.
SMILES	AF4-AF9 inh	E coli growth	RanGTP-Imp inh	HNF4A DNA FP	UCH37 DUB inh	FGF22 binding	Vif TR-FRET
COc1ccc(C)cc1S(=O)(=O)NCC(c1ccc2c(c1)OCO2)N1CCN(C)CC1 (stereo unspecified)	-4.3	0.62	2.5	1.5	0.6	i	5%
Cc1ccc(C2(SCC(N)C(=O)O)c3ccccc3-c3ccccc32)cc1 (stereo unspecified)	0.4	.	.	0.1	.	i	-6%
Cc1ccc2sc(N(CCCN(C)C)C(=O)c3nc4ccccc4s3)nc2c1C	-10	0.66	7.1	217*	-92	i	7%
CCc1ccc(-c2cc(C(=O)O)c3ccccc3n2)s1	-1.0	0.69	0.0	0.9	i	.	-5%
Cc1ccc(NC(=O)C2CCN(S(C)(=O)=O)CC2)cc1Cl	-0.4	0.66	2.4	-0.1	1.2	i	.
O=C(Nc1ccccc1)Nc1nc(-c2ccc(Cl)cc2)cs1	-4.1	0.72	3.6	-2.2	2.3	i	9%
O=C(Cc1n[nH]c(=O)c2ccccc12)N/N=C/c1cc2c(cc1Cl)OCO2	1.4	.	5.4	3.3	.	i	-3%
O=Cc1cccc(OCc2cn(CC(=O)c3ccc(O)cc3)nn2)c1	-1.2	.	.	-2.0	.	i	.
O=C(CCC(=O)NNC(=O)c1ccc([N+](=O)[O-])cc1)NCc1ccccc1	0.0	0.68	5.0	-0.9	5.3	i	7%
CC1CCN(C(=O)c2cc(Cl)ccc2NC(=O)c2ccco2)CC1	-1.1	0.7	-5.4	2.7	1.7	i	.
CCCOc1ccc(C2c3c(oc4ccccc4c3=O)C(=O)N2CCN(CC)CC)cc1OC (stereo unspecified)	.	0.63	0.1	-1.5	2.2	.	1%
CCOc1ccc(N2C(=O)CC(NCCNc3ccc(C(=O)c4cccs4)cc3)C2=O)cc1 (stereo unspecified)	-2.2	0.61	-3.6	3.1	7.6	i	-8%
O=C1COc2cc(ccc2[N+](=O)[O-])Oc2ccc(cc2Cl)C(=O)CCCCO1	-0.6	0.64	1.2	-3.2	-2.7	i	.
O=C(CCN1C(=O)/C(=C/c2ccc(F)cc2)SC1=S)Nc1cccnc1	0.8	0.71	-0.2	-0.2	-0.4	i	29%
Cc1ccc2nc(C)c(C(=O)N/N=C/c3cccs3)n2c1	-3.0	.	-1.1	-0.8	.	i	.
COc1ccccc1Cn1c(C)c(C(=O)NCc2ccc(C#N)cc2)sc1=O	6.7	.	.	1.9	.	i	.
CCN(CC)c1ccc(NC(=S)NC(=O)Cc2ccccc2)cc1	.	0.7	-2.8	-1.4	3.2	.	-6%
COc1ccc(NC(=O)C2CCN(S(=O)(=O)c3ccc(N4CCCC4=O)cc3)CC2)c(OC)c1	3.0	0.66	-2.2	-2.5	4.2	i	0%
CCCN(CCC)S(=O)(=O)c1ccc(NC(=O)c2cc(C(=O)OC)cc([N+](=O)[O-])c2)cc1	.	0.68	3.6	-4.8	4.2	.	-1%
O=C(CCCN1C(=O)/C(=C/c2ccccc2Cl)SC1=S)N1CCOCC1	0.8	0.74	3.3	0.1	8.6	i	2%
Cn1c(=O)c2c(nc(Cl)n2Cc2ccc(Cl)c(Cl)c2)n(C)c1=O	.	0.73	3.1	2.7	2.0	.	-1%
CCCCCn1c(=O)[nH]c2cc(C(=O)N3CCN(CC)CC3)ccc2c1=O	.	0.68	2.4	-1.7	1.2	.	-3%
COc1cc(-c2[nH]ncc2CN2CCSCC2)cc(OC)c1OC	-8.1	0.67	3.1	1.0	2.6	i	7%
O=C(N/C(=C\c1cccc(Br)c1)C(=O)N1CCCCC1)c1ccco1	3.9	0.63	0.8	4.6	3.0	i	6%
COc1ccccc1-c1coc2c(CN3CCN(CCO)CC3)c(O)ccc2c1=O	.	.	0.5	-3.9	-190	.	.
O=C(CCNC(=O)N1CC(=O)Nc2ccccc21)NCc1cccc(C(F)(F)F)c1	1.1	.	.	0.0	.	i	1%
Brc1ccc(-c2csc(NC3=NCCCCC3)n2)cc1	0.4	0.73	4.7	0.0	-0.4	i	3%
O=S(=O)(c1ccc(NC(=S)NCc2ccncc2)cc1)N1CCCCC1	1.1	0.63	3.0	-1.3	-0.1	i	0%
CC1CCCN(CCCNC(=O)C2CCCN(c3ncnc4c3nc3n4CCCCC3)C2)C1 (stereo unspecified)	1.5	0.7	0.6	0.7	1.9	i	.
CC1CCCCC1NC(=O)CN(C)S(=O)(=O)c1ccc2c(c1)c(=O)n(C)c(=O)n2C (stereo unspecified)	-2.8	0.65	-0.9	1.1	-0.4	i	-1%
CCc1c(C(=O)O)[nH]c2ccc(Br)cc12	.	0.78	1.3	0.4	2.2	.	-12%
Cc1ccc(N=Nc2c(N)n[nH]c2N)cc1	-0.2	0.65	-1.0	0.2	14	i	-8%
O=C(c1ccc(N2CCOCC2)c([N+](=O)[O-])c1)N1CCN(S(=O)(=O)c2cccs2)CC1	3.3	0.66	-6.7	-2.0	5.3	.	2%
Cc1ccc(NC(=O)COC(=O)Cn2cnc3ccccc32)c([N+](=O)[O-])c1	-2.5	0.7	-0.1	-2.9	4.6	i	2%
O=C(NCCS(=O)CCNC(=O)C(F)(F)F)C(F)(F)F	.	0.7	4.0	0.2	0.9	.	95µM*
O=C1C(Cc2ccccc2)S/C(=N/N=C/c2ccco2)N1c1ccccc1 (stereo unspecified)	.	.	3.4	2.5	.	.	19%
Cc1ccc(S(=O)(=O)Nc2ccc(C(=O)NCc3ccncc3)cc2)cc1	0.9	0.69	-1.6	-1.3	5.1	i	.
OCCN(CC#CC(O)(c1ccccc1)c1ccccc1)CCO	1.9	0.67	1.4	-0.4	5.3	i	?
CC(C)(C)NCC(O)COc1ccccc1C(C)(C)C (stereo unspecified)	1.1	0.67	-5.0	-4.3	2.5	i	-9%
C=CCn1c(-c2ccc(Cl)cc2)cnc1SC(C)C(N)=O (stereo unspecified)	-0.2	0.67	0.2	-6.6	1.4	i	-9%
O=C(c1ccc([N+](=O)[O-])o1)N1CCN(c2nc3ccc(F)cc3s2)CC1	1.9	0.63	0.1	3.3	6.5	i	5%
CCN(CC)S(=O)(=O)c1ccc(OC)c(NC(=O)Cn2cnc3c2c(=O)n(C)c(=O)n3C)c1	0.2	0.7	-0.8	-1.5	4.5	i	14%
CCOc1ccc(OCCCCN(C)C)cc1	.	0.67	2.4	-3.9	-0.8	.	28%
CCOC(=O)CN1C(=O)N[C@@H](c2cccc(C(F)(F)F)c2)C(C(=O)OC)=C1C	.	.	3.0	-1.7	-1.3	i	.
Cc1ccc(CN(Cc2ccccc2)C(=S)Nc2ccccc2C)o1	2.1	0.74	-0.1	-1.6	-0.2	i	13%
COc1ccc(CC(N)c2csc(NC(=O)NC(c3ccccc3)c3ccccc3)n2)cc1 (stereo unspecified)	2.4	.	.	1.1	.	i	.
CCOC(CCNC(=O)c1cn(-c2cccc(C)n2)cn1)OCC	.	0.78	-1.9	-2.6	1.8	.	31%
CCOc1ccccc1N(CC(=O)Nc1ccc(OC)cc1)S(=O)(=O)c1ccccc1	-4.4	0.67	0.4	-2.6	1.5	i	1%
COc1ccc(CNC(=O)c2nnn(CC(=O)Nc3cc(C)cc(C)c3)c2N)cc1	-1.6	0.68	1.7	4.7	5.5	i	.
Cc1ccc(S(=O)(=O)N2CCN(c3cnn(C)c(=O)c3Cl)CC2)cc1	-3.2	0.71	1.1	1.4	1.0	i	-39%

Bioassay records deposited in PubChem by several laboratories.

Only part of the results is shown; the hit share may differ from the screen's.
